# CtBP-E1A inh: CtBP/E1A binding inhibition | 340,000 compounds, 0.49% hits | AlphaScreen GST-E1A/His-CtBP binding, 1536-well; hits give low values; control for the full effect not named in the record | activity change, % (concentration not given with the values) | AID 651724; in the data active means activity change below about -65%; inconclusive means about -30% to -65%; inactive means above about -30%; note: % is set by controls: 0 for no effect and ±100 for the full control effect
#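 In 5 uL wells, 23 nL compound meets equimolar GST-E1A and His-CtBP (5X stock 125 nM each) for 2 h, 37 °C. Beads (5X, 50 ug/mL) then 1 h, 37 °C, dark.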
# PINK1 modulator: PINK1 expression modulation | PINK1 immunofluorescence, high-content cytometry, 24 h | Potency, µM (series often up to 76.6 µM), inactives show top-dose activation (PINK1 increase), most hits filed as activators | 410,000 compounds, 0.2% hits; active = well fitted activation curve with a large enough effect; inconclusive = small, poorly fitted or top-dose-only effect; inactive = flat fitted curve, though single readings scatter; cell line not stated here;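 note: potency is the fitted concentration of half-maximal effect; % of control where 0% means no effect; nearly all actives have a fitted effect of over 65% in size; a mitochondrial uncoupler was the plate control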
#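 Stable cell line treated 24 h with compounds at 5 concentrations (CCCP controls), then fixed and immunostained for PINK1 plus nuclear and cell stains; PINK1 immunofluorescence quantified by laser-scanning microplate cytometry.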
# Sfp inh: inhibitors of Bacillus subtilis Sfp phosphopantetheinyl transferase; Biochemical Sfp PPTase activity, qHTS; Potency, µM, for the others: max response, negative = inhibition, most hits filed as inhibitors; 310,000 compounds, 3.5% hits; active = well fitted inhibition curve with a large enough effect; inconclusive = small, poorly fitted or top-dose-only effect, or another doubt; inactive = no such curve, though single readings can be large or run the other way;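 note: the enzyme is Sfp with the accession as filed and its product quenches rhodamine fluorescence; potency is the fitted concentration of half-maximal effect; 0% = enzyme reaction without inhibitor and -100% = no enzyme wells; top concentration of the series not given in the record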
#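 Sfp 15 nM + cpd, 15 min RT; start w/ rhodamine-CoA 5 uM, BHQ-2-YbbR 12.5 uM (final); 50 mM Hepes pH 7.6, 10 mM MgCl2, 0.01% NP-40, 0.01% BSA; read 525/598 nm at 0 and 30 min.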
# TRPV1 potentiator: potentiators of human vanilloid receptor 1 (TRPV1) | 320,000 compounds, 0.02% hits | AID 540277 | Q8NER1 | TRPV1-expressing cells, Fluo-8 calcium influx, capsaicin EC20 potentiation; host cell line not named in the record; control for the full effect not named in the record | potentiation, % at 8.33 µM; active means potentiation above 80%; inconclusive means 30% to 80%; inactive means below 30%; note: 0% is about no effect
#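 Cells expressing TRPV1 were dye-loaded with Fluo-8 and read kinetically: 10 s baseline, 3 min after compound (agonist portion), then 2 min after EC20 capsaicin (allosteric enhancer portion). Calcium-bound dye fluorescence at 480/520 nm.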
# D2 ag: agonists of human D2 dopamine receptor (beta-arrestin) | activation, % (no concentration beside the values) | DiscoveRx PathHunter D2 beta-arrestin, luminescence, 90 min; 100% = 57 uM dopamine signal | P14416 | 360,000 compounds, 0.084% hits; in the data active = activation above about 40%; inconclusive = about 15% to 40%; inactive = below about 15%; note: compound concentration not given in the record; the text of the record calls up to 30% inactive
#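 DiscoveRx PathHunter D2 beta-arrestin cells (2,100/well) attached overnight, then compound-stimulated 90 min at 37 C in HBSS/10 mM HEPES/0.1% Tween-20 buffer; beta-galactosidase complementation read by luminescence after 1 h at ambient temperature. Dopamine 57 uM final (EC100) as control.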
# D2 potentiator: positive allosteric modulators of human D2 dopamine receptor. P14416. DiscoveRx D2 beta-arrestin cells, luminescence, 90 min; 100% = 57 uM dopamine signal. potentiation, % (concentration not given with the values). 360,000 compounds, 0.23% hits; active = potentiation of 50% or more; inconclusive = 30% to 50%; inactive = 30% or less;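 note: tested on top of an EC20 dose of dopamine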
#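 D2 cells co-treated with compound plus 50 nM dopamine (EC20) for 90 min at 37 deg C to detect potentiation. Beta-arrestin recruitment was read as enzyme-fragment luminescence after 1 h at ambient temperature. Full response was set by 57 uM dopamine.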
# Six1-Eya2 inh: blocks human Six1 binding to Eya2; Q15475+O00167; AlphaScreen GST-Six1/His-Eya2 binding, biochemical; hits give low values; control for the full effect not named in the record; activity change, % (concentration not given with the values); 360,000 compounds, 0.56% hits; AID 651725; in the data active = activity change below about -65%; inconclusive = about -30% to -65%; inactive = above about -30%; note: % is set by controls: 0 for no effect and ±100 for the full control effect
# Target sequence (O00167 whole entry, looked up): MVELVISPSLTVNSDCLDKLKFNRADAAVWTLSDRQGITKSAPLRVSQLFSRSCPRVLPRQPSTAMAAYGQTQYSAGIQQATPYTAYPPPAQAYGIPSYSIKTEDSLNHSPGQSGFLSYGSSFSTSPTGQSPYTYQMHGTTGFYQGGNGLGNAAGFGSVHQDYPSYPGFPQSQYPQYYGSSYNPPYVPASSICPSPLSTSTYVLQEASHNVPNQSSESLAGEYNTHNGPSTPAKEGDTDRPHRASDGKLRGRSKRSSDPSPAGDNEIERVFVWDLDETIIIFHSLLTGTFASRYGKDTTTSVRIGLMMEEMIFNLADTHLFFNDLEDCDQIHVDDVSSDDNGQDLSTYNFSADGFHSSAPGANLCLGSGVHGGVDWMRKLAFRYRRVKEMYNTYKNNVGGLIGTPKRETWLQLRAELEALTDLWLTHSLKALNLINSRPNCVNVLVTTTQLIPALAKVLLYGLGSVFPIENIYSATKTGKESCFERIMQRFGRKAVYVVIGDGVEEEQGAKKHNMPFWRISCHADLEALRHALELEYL
# Target sequence (Q15475 whole entry, looked up): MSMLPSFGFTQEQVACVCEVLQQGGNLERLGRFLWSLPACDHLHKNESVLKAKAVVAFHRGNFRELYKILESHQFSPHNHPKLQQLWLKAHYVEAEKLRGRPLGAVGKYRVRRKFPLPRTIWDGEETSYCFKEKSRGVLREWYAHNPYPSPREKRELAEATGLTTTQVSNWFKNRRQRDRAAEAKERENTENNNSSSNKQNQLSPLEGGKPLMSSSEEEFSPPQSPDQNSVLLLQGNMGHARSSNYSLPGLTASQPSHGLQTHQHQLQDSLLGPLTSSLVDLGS
#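 AlphaScreen luminescence read after one hour at 37 °C in darkness. Pin-transferred compounds met GST-Six1 and His-Eya2 protein (5X stock 250 nM/500 nM) plus glutathione donor and Ni-chelate acceptor beads (5X, 50 ug/mL).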
# An asterisk follows results filed as active; ? = inconclusive; nt = no result given; [ ] = another dose, or the depositor's remark.
# Values run as follows: Sfp inh	D2 potentiator	PINK1 modulator	TRPV1 potentiator	D2 ag	Six1-Eya2 inh	CtBP-E1A inh
CC(C)(C)c1ccc(-c2csc(NC(=O)CN3C(=O)NC4(CCCCC4)C3=O)n2)cc1
 : 3%	4	4.1%	-1	-1.5	-1	1
COc1ccc(CN2C(=O)c3cccnc3C2=O)cc1S(=O)(=O)N1CC(C)Oc2ccccc21 (stereo not drawn)
 : 2%	6	-1.0%	5	2.1	-1	-8
COc1ccc(-n2nc(C(=O)NCC(=O)N3CCCC(C)C3)c3ccccc3c2=O)cc1Cl (stereo not drawn)
 : 3%	2	-0.2%	-1	4.6	3	-6
Cc1cc(Cl)ccc1C(O)c1ncc(-c2ccc3ccccc3c2)[nH]1 (stereo not drawn)
 : nt	-6	19%	nt	-3.1	-19	-16
Cc1ccc(OCC(=O)Nc2ccc(Cl)cc2)c([N+](=O)[O-])n1
 : nt	-3	0.0%	-23	4.0	-3	-1
CC1(C(=O)Nc2ccc3c(c2)OCCO3)CCN1Cc1csc2ccccc12 (stereo not drawn)
 : nt	-10	-0.2%	nt	-5.6	-7	-5
O=C1OC(Nc2ccc3ncccc3c2)c2ccccc21 (stereo not drawn)
 : -6%	13	nt	7	-0.2	-3	-4
CCN(CC)S(=O)(=O)c1cc(NC(=O)c2ccc(-n3cncn3)c([N+](=O)[O-])c2)ccc1C
 : 10%	8	4.1%	5	5.7	-10	0
Cc1ccc(NC(=O)c2nc3nccc(C)n3n2)cc1S(=O)(=O)N1CCCCC1
 : nt	-9	3.8%	nt	0.3	-1	nt
COC(=O)c1ccc(CSc2nnc(NC(=O)C3CC(=O)N(c4ccc5c(c4)OCCO5)C3)s2)cc1 (stereo not drawn)
 : -2%	1	2.9%	-2	1.3	-13	2
O=C(Cn1c(CO)nc2ccccc21)Nc1ccc2c(c1)OCCCO2
 : nt	-3	-0.5%	1	-6.7	4	-4
COC(=O)c1ccc(/C=C2/SC(=S)N(CCCC(=O)Nc3ccc(O)cc3)C2=O)cc1
 : 11%	-8	1.3%	14	-0.5	-2	-16
Cc1cc2nc(-c3cccnc3SCC(=O)NC(C)C)[nH]c2cc1C
 : 16%	-10	1.0%	20	-1.9	1	-6
C=C(C)CSc1nc2c(cc1C#N)CCC2
 : -3%	-3	0.5%	-16	-1.6	37	25
C[C@H]1COC(=O)[C@H](Cc2ccc(F)cc2)C/C=C\C[C@H](CC(=O)NCCO)C(=O)N1
 : nt	-11	1.8%	nt	-2.7	3	nt
NNC(=O)c1sc2cc(C(F)(F)F)cnc2c1-c1cccnc1
 : -5%	-7	0.6%	-2	4.2	2	2
CC1CCCCN1C(=O)CSc1nnc(-c2ccco2)o1 (stereo not drawn)
 : 14%	-5	1.0%	-1	-5.4	-14	-10
O=C(N/N=C/c1ccncc1)c1sc2ccccc2c1Cl
 : -1%	-19	-0.2%	-13	-0.4	?	nt
COc1cccc(CC2(CO)CCCN(Cc3cn[nH]c3-c3cc(C)ccc3C)C2)c1 (stereo not drawn)
 : 2%	-20	0.5%	2	-1.9	-3	-5
COCCN(C(=O)COC(=O)c1cnc(C)cn1)c1c(N)n(Cc2ccccc2)c(=O)[nH]c1=O
 : nt	0	1.1%	-8	-0.5	3	-8
CCOC(=O)c1[nH]c2c(c1C)C(=O)CC(c1ccc(OCC)c(OC)c1)C2 (stereo not drawn)
 : -3%	-7	0.2%	-8	2.0	6	3
CCCOc1ccc(C(=O)NC(=S)N2CCN(c3cc4c(cc3F)c(=O)c(C(=O)O)cn4CC)CC2)cc1
 : -6%	-6	35µM*	10	-2.8	0	-1
C#CCOCCOCCOCCNc1nc(N2CCN(C(=O)Cn3cc(CCO)nn3)CC2)nc(N2CCN(C(=O)Cn3cc(CC(C)O)nn3)CC2)n1 (stereo not drawn)
 : nt	-5	0.7%	nt	-2.7	-2	7
COc1ccc(-c2onc(C)c2-c2ccc(C(=O)OC(C)C)o2)c(O)c1
 : 11%	-2	17%	-13	4.9	-2	7
COc1ccccc1N(C)S(=O)(=O)c1ccc(C(=O)NCC(c2ccco2)N2CCCCC2)cc1 (stereo not drawn)
 : nt	-38	-0.1%	nt	-1.9	-9	nt
O=C1c2cccc3c2N(CCC3)C(=O)C1(F)c1ccccc1 (stereo not drawn)
 : nt	-5	-0.9%	nt	-5.8	7	-13
COc1ccccc1NC(=O)NNC(=O)CCc1ccccc1
 : 7%	5	1.0%	-9	-0.9	1	7
COCCCNC(=O)C(=O)N/N=C/c1cc2c(cc1Br)OCO2
 : 17%	-5	8.6%	1	-1.6	-13	1
COc1ccccc1NS(=O)(=O)c1ccc(C)c(NS(=O)(=O)c2cc(NC(C)=O)ccc2OC)c1
 : nt	-1	2.7%	nt	3.1	-2	nt
CCC(=O)c1ccc(OCC(=O)OC(C)C(=O)NCc2ccc3c(c2)OCO3)cc1 (stereo not drawn)
 : nt	-16	-0.8%	1	-1.3	-1	18

# Next section, starting with the last two of the part before.
# Values run as follows: Sfp inh	D2 potentiator	PINK1 modulator	TRPV1 potentiator	D2 ag	Six1-Eya2 inh	CtBP-E1A inh
COc1ccccc1NS(=O)(=O)c1ccc(C)c(NS(=O)(=O)c2cc(NC(C)=O)ccc2OC)c1
 : nt	-1	2.7%	nt	3.1	-2	nt
CCC(=O)c1ccc(OCC(=O)OC(C)C(=O)NCc2ccc3c(c2)OCO3)cc1 (stereo not drawn)
 : nt	-16	-0.8%	1	-1.3	-1	18
O=C(CC1C(=O)NCCN1C/C=C/c1ccccc1)NCCc1cccnc1 (stereo not drawn)
 : 13%	-9	-0.2%	-4	-3.3	9	3
Cc1c(CCOC(=O)c2ccccc2)sc[n+]1Cc1ccccc1
 : 2%	-1	-2.6%	11	-0.3	4	12
CCOc1ccccc1C(=O)NC(C(=O)OCC(=O)Nc1nnc(-c2ccccc2)o1)C(C)C (stereo not drawn)
 : 28%	-8	-1.2%	-21	-2.0	?	?
Cc1nc2ccccc2c(=O)n1CCN1CCOCC1
 : -6%	-2	-1.1%[38.3 µM]	-1	-2.2	1	7
CC(=O)NS(=O)(=O)c1ccc(NC(=O)C(Sc2ccccc2)c2ccccc2)cc1 (stereo not drawn)
 : 15%	-5	1.9%	-11	-3.4	-12	14
BrC(/C=N/Nc1nc(N2CCOCC2)nc(N2CCOCC2)n1)=C/c1ccccc1
 : 79µM*	-13	0.1%	-16	-5.8	-6	-2
Cc1ccc(/C=C2/CCc3c([nH]c4ccccc34)C2=O)cc1
 : 17%	-22	12%	7	0.2	0	10
O=C(NCc1ccccc1)c1cc(S(=O)(=O)N2CCCCC2)ccc1N1CCOCC1
 : 10%	-1	0.9%	-17	-1.3	7	-2
Cc1ccccc1N1CCN(C2CCCN(C(=O)c3ccsc3)C2)CC1 (stereo not drawn)
 : 2%	-41	1.7%	6	-2.5	-2	4
O=C(O)c1cccc(NC(CNS(=O)(=O)c2ccc(Cl)cc2)c2ccccc2)c1 (stereo not drawn)
 : 6%	-2	0.6%	18	-0.6	4	20
COc1cc(O)oc1C=Nc1ccc(Oc2ccccc2)cc1
 : -14%	6	-0.8%	-9	0.7	-3	-3
Cc1c(OC(C)C(=O)N[C@@H](Cc2ccccc2)C(=O)O)ccc2c3c(c(=O)oc12)CCCC3 (stereo partly drawn)
 : 15%	20	-0.6%	-6	4.8	-21	-15
CC1Cn2c(nc3sc4c(c3c2=O)CC(C)(C)OC4)N1CCO (stereo not drawn)
 : 11%	-2	-0.2%	9	0.2	-2	7
Cc1ccc(-c2cc(C(=O)Nc3ccc(S(=O)(=O)Nc4cc(C)on4)cc3)c3ccccc3n2)c(C)c1
 : 9%	-10	1.4%	24	-1.7	-1	0
CCOC(=O)c1ccc(-c2c(-c3ccc4c(c3)OCO4)noc2-c2ccsc2)cc1F
 : -4%	-7	6.0%	-7	-2.6	1	1
O=C(NCCCN1CCOCC1)c1onc(CSc2nc3ccccc3[nH]2)c1C(=O)NCCCN1CCOCC1
 : 3%	-10	-0.3%	-8	-1.6	-3	?
O=C(NCc1ccccc1)C1CCCN(S(=O)(=O)c2cccc3nonc23)C1 (stereo not drawn)
 : 7%	23	4.0%	-7	-3.7	-5	-2
O=C(COC(=O)c1ccc(Cl)nc1)Nc1ccc(N2CCOCC2)cc1
 : nt	1	-2.2%	2	1.1	5	-12
O=C(O)C1CCCCC1C(=O)Nc1ccc(S(=O)(=O)N2CCCCC2)cc1 (stereo not drawn)
 : 15%	-7	1.5%	10	-0.7	10	0
Cc1ccc([N+](=O)[O-])cc1Nc1nc(N2CCCC2)nc(N2CCCC2)n1
 : -15%	-4	0.1%	24	-3.6	4	2
O=C(Cc1c(Cl)cccc1Cl)Nc1ccc(S(=O)(=O)Nc2ncccn2)cc1
 : -27%	-1	0.0%	-4	-2.6	3	-4
CCn1c(Cc2ccccc2)nnc1SCC(=O)Nc1cc(C)on1
 : -11%	13	8.6%[38.3 µM]	-3	-3.5	3	0
N#Cc1cccc(NCC(=O)Nc2cccc(S(=O)(=O)N3CCCCC3)c2)c1
 : nt	-4	5.7%	12	7.4	-2	-2
CN1CCN(C(=O)C2CCN(S(=O)(=O)c3ccccc3[N+](=O)[O-])CC2)CC1
 : nt	-11	1.2%	-10	-4.3	5	-5
COc1ccccc1CNC(=O)COC(=O)Cc1cccc(F)c1
 : nt	-6	1.6%	-30	3.0	-1	nt
CCc1ccc(OCC(=O)NNC(=O)Cc2ccc(S(=O)(=O)N3CCOCC3)s2)cc1
 : nt	-24	1.7%	-3	2.8	2	3
COc1cc2nc(=S)n(CCCN3CCOCC3)c(N)c2cc1OC
 : 50µM*	-9	-1.8%	?	-0.8	-85*	-88*
Cc1ccc(Oc2ncnc(N)c2[N+](=O)[O-])cc1
 : 5%	-4	-0.8%	-11	-0.5	12	1
O=C(CNC(=O)c1ccc2c(c1)OCCO2)N/N=C/c1ccc([N+](=O)[O-])cc1
 : 14%	5	?	22	9.3	1	6
Cc1cc(NS(=O)(=O)c2ccc(NC(=O)CCc3ccccc3)cc2)no1
 : -8%	-11	0.6%	-6	-1.4	-3	7
Nc1ccc(Oc2cc(N)cc(Oc3ccccc3)c2)cc1
 : 8%	0	0.3%	-8	2.9	-6	-16
CCOC(=O)c1ccc(N=Cc2cnc(N)nc2N)cc1
 : nt	-16	-4.3%	nt	-5.0	23	0
CCOc1ccc(NC(=O)CCC(=O)OC)cc1
 : 7%	-8	3.9%[38.3 µM]	-8	-0.1	4	0

# Screens (PubChem BioAssay)
